High-throughput results (PubChem BioAssay)
LANA-H2B inh – blocks KSHV LANA binding to histone H2A/H2B; Q9QR71; cell-free LANA-H2A/H2B peptide, fluorescence polarization; inhibition, % (concentration not given with the values); 320,000 compounds, 0.6% hits; in the data active = inhibition mostly above about 10%, no sharp cut-off; inactive = mostly below about 6.7%;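 also: stock transfer was 7.5 nL into about 10 µL; 0% = median of vehicle wells and 100% = median of positive control wells; one replicate is shown; the record names a cut of 25% in any replicate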
Target sequence (Q9QR71 whole entry, looked up): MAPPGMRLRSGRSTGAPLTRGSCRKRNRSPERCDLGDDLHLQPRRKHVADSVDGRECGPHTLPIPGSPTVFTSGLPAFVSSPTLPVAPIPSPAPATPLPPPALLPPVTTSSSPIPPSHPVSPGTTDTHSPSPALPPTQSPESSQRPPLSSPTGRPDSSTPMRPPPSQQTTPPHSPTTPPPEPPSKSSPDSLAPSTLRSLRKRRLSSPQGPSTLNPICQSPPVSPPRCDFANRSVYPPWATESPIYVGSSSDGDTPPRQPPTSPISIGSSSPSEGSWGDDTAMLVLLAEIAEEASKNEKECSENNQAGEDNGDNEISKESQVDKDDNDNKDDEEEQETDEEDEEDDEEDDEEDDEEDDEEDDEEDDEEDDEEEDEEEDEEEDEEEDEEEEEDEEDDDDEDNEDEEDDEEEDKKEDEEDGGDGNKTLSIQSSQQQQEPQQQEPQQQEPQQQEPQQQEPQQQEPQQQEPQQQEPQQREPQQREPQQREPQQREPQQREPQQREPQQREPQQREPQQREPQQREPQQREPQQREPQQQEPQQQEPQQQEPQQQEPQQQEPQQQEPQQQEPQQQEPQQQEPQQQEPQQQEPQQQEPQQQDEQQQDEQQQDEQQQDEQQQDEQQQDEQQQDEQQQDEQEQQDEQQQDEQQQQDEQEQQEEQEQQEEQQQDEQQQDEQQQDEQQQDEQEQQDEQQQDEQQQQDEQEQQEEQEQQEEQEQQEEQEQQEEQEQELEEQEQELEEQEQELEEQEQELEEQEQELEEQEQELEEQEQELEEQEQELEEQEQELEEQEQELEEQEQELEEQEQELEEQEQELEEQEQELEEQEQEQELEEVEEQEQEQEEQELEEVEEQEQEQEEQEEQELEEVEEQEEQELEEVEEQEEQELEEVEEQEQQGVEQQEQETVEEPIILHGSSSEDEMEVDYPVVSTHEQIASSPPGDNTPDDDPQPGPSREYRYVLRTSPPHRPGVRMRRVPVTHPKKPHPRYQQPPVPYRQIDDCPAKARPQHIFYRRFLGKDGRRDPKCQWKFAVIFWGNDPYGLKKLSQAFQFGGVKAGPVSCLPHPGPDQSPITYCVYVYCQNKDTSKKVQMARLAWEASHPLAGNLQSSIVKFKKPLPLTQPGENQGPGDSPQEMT
A1 inh – inhibitors of the anti-apoptotic protein A1, read as caspase activation. MEF A1-2A-BIM cells, Caspase-Glo 3/7 luminescence, 3 h; percent of clofoctol response, vehicle zero. caspase activation, % (no concentration beside the values). 330,000 compounds, 0.066% hits. AID 2462;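 active = over half of replicate activation scores above 10%, or exactly half above 10 with the replicate mean above 10; inconclusive = replicate mean below 10 yet half the replicates above 10; inactive = over half of replicates below 10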;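 also: wells of about 30 µL received 50 nL stock; many hits fall short of the cut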
Calb FLC – C. albicans growth modulation with fluconazole; C. albicans CaCi-2 (fluconazole-resistant clinical isolate) + fluconazole, Alamar Blue growth, 48 h; growth inhibition, % (test concentration not listed); 300,000 compounds, 0.57% hits; AID 1979;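 active = most replicates above 75%; inconclusive = exactly half above 75%; inactive = most below 75%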;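 also: all wells also contain fluconazole at 8 µg/ml as a sub-toxic cotreatment; 0% = median of DMSO wells and 100% = median of geldanamycin control wells; wells of about 8 µL received 7.5 nL stock; the first replicate is given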
T cruzi repl – blocks replication of Trypanosoma cruzi; inhibition, % (test concentration not listed); AID 1885; 300,000 compounds, 1.4% hits; T. cruzi beta-gal in NIH3T3, luminescence, 90 h;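 active = mean inhibition across valid replicates above about 55%, limit read from the data; inconclusive = mean below that limit but half or more replicates reach it; inactive = mean below it, under half of replicates reach it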;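 also: signal also drops with host cell toxicity which is not excluded here; 0% = plate median of DMSO wells and 100% = zero luminescence signal; higher percent means less beta-gal luminescence so fewer parasites; stock transfer was 50 nL into about 50 µL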
Beta apoptosis – blocks beta cell apoptosis. protection from apoptosis, % (test concentration not listed). 300,000 compounds, 0.8% hits. INS-1E cytokine-induced death, ATP luminescence, 48 h; percent of positive-control rescue, neutral wells zero;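 active = all replicates at 75% or more, or half of them and the mean; inconclusive = half reach 75% but not the mean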;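 also: 0% = cytokine-treated negative control wells and 100% = positive control rescue; higher means more ATP so stronger rescue from cytokine killing; wells of about 40 µL received 100 nL stock; the first replicate is given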
Vif TR-FRET – HIV-1 Vif–A3G interaction blockers – biochemical, TR-FRET, GST-Vif 1-94, biotin-A3G peptide, dose response retest, primary screen (AID 1117319) | TR-FRET GST-Vif / biotin-A3G peptide binding; higher % means a stronger effect; test concentration not given here; strong numbers were not always called active | inhibition, %, or IC50 in µM where a hit was titrated | 260,000 compounds, 0.57% hits;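 active = above the screen mean plus three standard deviations and confirmed in dose response; inconclusive = results disagree or hit not tested in dose response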;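 also: Vif residues 1-94 fused to GST binding biotinylated APOBEC3G peptide 110-148; 0% = full assay without inhibitor and 100% = GST in place of GST-Vif; retest series ran down from 100 µM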
AF4-AF9 inh – blocks AF4 peptide binding to human AF9. P42568. AlphaScreen, biotin-AF4 peptide binding to FLAG-AF9. inhibition, % at 10 µM. 350,000 compounds, 0.47% hits;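 active = every replicate reaching a set inhibition limit, whatever the replicate mean, cut at about 25% in these data; inconclusive = mean inhibition reaches that limit but some replicates miss it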;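 also: 0% = plate neutral control median and 100% = total signal loss; the record names both 10 and 1 µM as test concentration; the first replicate is given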
RanGTP-Impb inh – disruptors of Ran-importin-beta complex formation – biochemical, FRET, CFP-Ran, YFP-importin-beta, homogeneous, primary screen; inhibition, % (no concentration beside the values); 300,000 compounds, 1.1% hits; cell-free CFP-Ran/YFP-importin-beta FRET ratio;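 active = most replicates above 15%; inconclusive = exactly half above 15%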;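 also: 0% = DMSO wells and 100% = Ran loaded with GDP instead of GTP; wells of about 40 µL received 100 nL stock; the first replicate is given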
An asterisk follows results filed as active; ? = inconclusive; · = not tested or not shown.

SMILES	LANA-H2B inh	A1 inh	Calb FLC	T cruzi repl	Beta apoptosis	Vif TR-FRET	AF4-AF9 inh	RanGTP-Impb inh
COC(=O)c1ccc(OCC(=O)NC(C)(C)C)cc1	2.7	-1.3	1	1	-2	-5%	·	0.3
O=C(O)CN1CCN(c2ncc(C(F)(F)F)cc2Cl)CC1	4.8	0.4	-3	-10	-8	-9%	-7.6	2.1
COc1ccc(-c2nsc3c(SCc4ccccc4)ncnc23)cc1	-1.0	0.4	-19	-11	·	·	·	3.7
O=C(NCC(=O)N1CCN(Cc2ccccc2)CC1)c1cccs1	3.6	1.2	·	·	-3	·	1.0	·
Cc1ccc(SCc2c(C(=O)N/N=C/c3ccc4c(c3)OCO4)nnn2-c2nonc2N)cc1	2.6	-1.0	4	-3	-2	·	-0.3	1.3
Cc1ccc(OCCn2cnc3cc([N+](=O)[O-])ccc3c2=O)cc1	-6.7	0.5	-4	72*	-2	·	2.2	-0.2
O=C(c1ccc(NS(=O)(=O)c2ccc(F)cc2)cc1)N1CCOCC1	-1.4	0.0	-13	-10	1	-3%	?	-2.8
Oc1ccc(-c2[nH]ncc2-c2ccc(Cl)cc2)c(O)c1	1.4	3.3	11	0	6	-1%	·	-3.5
CN(C(=O)COC(=O)c1ccc2c(=O)n3c(nc2c1)CCC3)C1CCS(=O)(=O)C1 (stereo not drawn)	1.9	-0.4	14	-1	-3	-2%	-1.5	0.0
COc1ccc(/C=N/NC(=O)c2ccc(N)cc2)cc1Cn1cc([N+](=O)[O-])cn1	0.1	1.7	3	3	0	·	2.2	-1.1
N#CCOc1nc(N2CCOCC2)nc(N2CCOCC2)n1	5.3	1.0	-9	-5	-5	1%	·	13
O=C(CSc1ccc(-c2ccco2)nn1)Nc1ccccc1	1.6	-0.3	32	9	-2	2%	-2.4	-2.0
NC(=O)CSc1nnc(-c2ccc3c(c2)OCO3)o1	2.1	-1.8	-1	-5	-3	2%	-2.0	-1.3
Cc1nc(N)nc(N)c1/C=C/C(C)(C)c1ccc(Cl)cc1	·	·	-12	60*	·	2%	2.7	2.7
CC(C)c1nc2n[nH]c(N)c2c2c1CCCC2	4.8	-2.1	15	12	-9	0%	·	1.3
CNC(=O)COc1ccc(Cl)c2cccnc12	6.5	-0.4	23	-4	·	3%	-3.0	0.8
O=C(Nc1ccccc1)N1CCN(c2cccc(C(F)(F)F)c2)CC1	-5.0	0.1	-3	-27	·	-3%	·	-1.1
O=CN1CCN(C(=O)c2cccc3c2-c2ccccc2C3=O)CC1	-3.0	0.2	1	3	-2	-7%	-0.2	6.2
O=C(Nc1ccc(-c2cn3ccccc3n2)cc1)c1ccco1	·	0.5	-15	-6	0	7%	0.7	-1.7
CCn1c(=O)c(C(=O)NCc2ccc(F)cc2)c(O)c2ccccc21	0.0	-0.2	?	-1	-8	·	5.5	0.0

Structural class, the compounds so far containing an aryl methoxy group (two)
SMILES	LANA-H2B inh	A1 inh	Calb FLC	T cruzi repl	Beta apoptosis	Vif TR-FRET	AF4-AF9 inh	RanGTP-Impb inh
COc1ccc(-c2nsc3c(SCc4ccccc4)ncnc23)cc1	-1.0	0.4	-19	-11	·	·	·	3.7
COc1ccc(/C=N/NC(=O)c2ccc(N)cc2)cc1Cn1cc([N+](=O)[O-])cn1	0.1	1.7	3	3	0	·	2.2	-1.1

More entries follow.
SMILES	LANA-H2B inh	A1 inh	Calb FLC	T cruzi repl	Beta apoptosis	Vif TR-FRET	AF4-AF9 inh	RanGTP-Impb inh
O=C(COc1ccc(Cl)cc1)NCCCn1ccnc1	15	-0.8	3	-7	-1	27%	·	5.1
COc1cccc(CC(=O)Nc2ccc(S(=O)(=O)N3CCOCC3)cc2)c1	-2.7	-0.4	-4	-19	-5	3%	0.4	2.0
CCN(C(=O)c1c(C)cc(=O)oc1C)c1ccc2c(c1)OCO2	4.4	-0.4	-7	12	0	?	·	17*
Cc1[nH]nc2ncc(C(=O)c3ccccc3O)cc12	2.3	0.0	0	4	-25	6%	·	?
c1ccc2c(CNn3cnnc3)cccc2c1	1.6	-0.5	-6	-7	-10	4%	·	1.7
Cc1csc(N(C(=O)c2ccc(S(=O)(=O)N(C)C)cc2)c2ccccc2)n1	1.3	0.0	7	7	-3	30%	·	-1.5
CCCC(=O)c1c[nH]c(C(=O)NCc2ccco2)c1	0.2	0.0	20	·	-1	1%	·	2.3
O=c1[nH]c2ccc(S(=O)(=O)NCc3ccccn3)cc2s1	5.3	-0.1	-9	-5	-10	7%	·	?
C=C1SC(Nc2c(C)cccc2C)=NC12CCCCC2	5.6	0.2	1	64*	9	?	0.8	0.8
CCN1CCN(C(=O)Nc2cccc3ccccc23)CC1	1.8	0.4	15	-1	-8	-3%	·	-2.7
COc1cc(S(=O)(=O)NC2CCSc3ccccc32)ccc1NC(C)=O (stereo not drawn)	-5.2	0.1	7	6	1	0%	-19	4.8
Cc1ccc(NC(=S)NNC(=S)NCc2ccccc2)cc1	-3.0	-0.8	-13	-7	0	-5%	·	0.1
O=C(NCc1ccc(F)cc1)C1C2C=CC3(CN(Cc4cccnc4)C(=O)C13)O2 (stereo not drawn)	-1.9	0.3	-9	0	-2	6%	·	0.0
CCOc1cc(-c2nc(-c3ccc(C)nc3OCC)no2)cc(OCC)c1OCC	6.4	0.3	4	6	-6	-2%	·	-4.2
O=S(=O)(Cc1ccccc1)NCC1CCCN(Cc2ccc(F)c(F)c2)C1 (stereo not drawn)	-1.9	0.4	-19	61*	6	-9%	0.3	0.4
Cn1nc(C(=O)OCc2ccc(F)cc2)c2ccccc2c1=O	-3.5	-0.6	?	-11	4	8%	-3.4	0.5
Cc1ccc(OCC(=O)c2cc(C)n(-c3ccccc3)c2C)c([N+](=O)[O-])n1	2.2	-0.7	3	8	-1	-5%	·	-3.7
COc1cccc(/C=N/n2c(=S)n(C)c3cc(C)c(C)cc32)c1OC	-0.2	0.2	-4	9	-5	0%	·	-3.1
NC(=O)/C(=C/c1ccco1)C(N)=S	0.2	0.5	15	-34	4	9.3µM*	-6.9	-0.2
O=C(O)CCCN=C1CCCc2ccccc2N1	3.1	-0.3	6	-17	-1	-6%	·	-1.0

Random excerpt: two entries already listed, in no set order.
SMILES	LANA-H2B inh	A1 inh	Calb FLC	T cruzi repl	Beta apoptosis	Vif TR-FRET	AF4-AF9 inh	RanGTP-Impb inh
Cn1nc(C(=O)OCc2ccc(F)cc2)c2ccccc2c1=O	-3.5	-0.6	?	-11	4	8%	-3.4	0.5
CCN(C(=O)c1c(C)cc(=O)oc1C)c1ccc2c(c1)OCO2	4.4	-0.4	-7	12	0	?	·	17*

(list continues)
SMILES	LANA-H2B inh	A1 inh	Calb FLC	T cruzi repl	Beta apoptosis	Vif TR-FRET	AF4-AF9 inh	RanGTP-Impb inh
Cc1cc(OC(C)C(=O)NCc2cccnc2)c2c(C)cc(=O)oc2c1 (stereo not drawn)	-3.7	1.3	1	0	-7	·	-1.4	-1.5
N#CC(C(N)=O)=C1CCC2(CC1)OCCCCO2	0.4	-0.4	-7	·	2	3%	·	·
COc1ccc(-c2nc(NC(=O)C3CC(=O)N(Cc4ccco4)C3)sc2C)cc1 (stereo not drawn)	-3.7	1.3	·	·	42	·	0.8	·
CCCCCOc1ccc(C(=O)NC(CCC)C(=O)O)cc1 (stereo not drawn)	-0.9	0.4	16	-13	-2	0%	·	-1.6
CCC(=O)Nc1ccc(NC(=O)Cc2ccccc2)cn1	-4.0	0.3	2	-9	1	?	·	5.5
O=C(NCCc1ccco1)C(=O)NCC1OCCCN1S(=O)(=O)c1ccc(F)cc1 (stereo not drawn)	-4.8	0.0	1	-12	2	·	-1.6	1.2
Cc1nc(Cc2nnc(SCC(=O)N3CC(=O)Nc4ccccc43)o2)cs1	0.9	-1.3	·	·	0	1%	0.8	·
Cc1cc(Nc2cccc(F)c2)nc(-c2ccccc2O)n1	-8.2	0.4	-10	56*	1	-4%	·	2.4
O=c1c2cccnc2[nH]c(=S)n1CCCN1CCN(c2ccccc2F)CC1	1.7	0.3	8	-8	3	-9%	·	-0.3
Cc1ccc(C(=O)N2CCN(c3ccc(NC(=S)NC(=O)c4cccs4)cc3)CC2)cc1	3.3	1.2	?	?	·	5%	5.4	-7.9
O=C1Nc2ccccc2/C1=C/c1cnc(-c2ccccc2)[nH]1	-2.9	-2.1	4	16	-8	-8%	-1.9	-34
O=C(NCc1ccco1)C(c1ccccc1)N(C(=O)Cc1cccs1)c1cccnc1 (stereo not drawn)	-1.2	-0.6	2	7	0	8%	-23	-2.7
NC(=O)c1nsc(C(=O)N(CC(=O)NCc2ccc(F)cc2)Cc2ccco2)c1N	3.4	0.3	0	4	-3	14%	·	1.5
CCOC(=O)c1sc(NC(=O)CS(=O)(=O)c2ccc(C)cc2)nc1C	-3.8	0.5	48	1	1	·	0.3	2.2
Cc1c(Cl)c(=O)oc2cc(OCC(=O)NCc3cccs3)ccc12	2.9	-0.4	-12	9	5	-2%	0.4	0.9
COC(=O)c1ccc(NC(=O)CSC2=NC(=O)C(c3ccccc3)C(=O)N2)cc1 (stereo not drawn)	0.2	0.7	-2	-4	-4	·	·	-0.4
COc1cccc(C(=O)Nc2nnc(S(=O)(=O)N(C)Cc3ccccc3)s2)c1	-1.1	-2.1	-2	-20	11	-8%	-7.0	-1.0
O=C(COc1ccc([N+](=O)[O-])cc1)Nc1cc(C(=O)O)cc(C(=O)O)c1	0.3	1.1	-1	-6	2	-1%	-2.2	0.3
CCc1ccc(CCC(=O)Nc2nnc(C)s2)o1	0.0	0.1	-14	-2	-6	-2%	·	-2.5
FC(F)(F)COc1ccc(-n2ccnc2)nn1	1.4	0.9	-16	-13	-4	·	-4.7	-0.4
Cc1[nH]nc2c1C(c1ccc(Cl)cc1)C(C#N)=C(N)O2 (stereo not drawn)	9.4	-0.3	11	-18	-7	-2%	·	-2.2
O=S1(=O)CCN2C(c3ccc4c(c3)CCCC4)=CSC2=N1	2.8	-1.1	-7	·	1	-6%	·	-2.3
Cc1cc(=S)c2cccc(C)c2[nH]1	-1.3	0.4	3	-8	-9	-14%	0.7	3.4
Cc1ccc(/C(N)=N/OC(=O)c2cc(-c3ccccc3)nc3ccccc23)cc1	0.9	0.4	-12	-18	-1	-4%	·	-3.1
CCOC(=O)c1ccc2c(c1)N(CC(=O)N1CCCC1)C(=O)C(C)(C)O2	-0.6	0.1	-11	-3	0	0%	·	2.7
CNC(=S)N(Cc1cc2cc(C)cc(C)c2[nH]c1=O)C1CCCC1	6.1	0.0	4	24	-2	23%	3.4	5.1
COc1ccc2[nH]c(=O)c(CN(CCO)S(=O)(=O)c3ccc(C)cc3)cc2c1	-1.8	0.7	31	9	-2	·	-6.3	?
Cc1oc2c(cc(NS(=O)(=O)c3ccc(F)cc3)c3ccccc32)c1C(=O)O	5.2	-0.6	41	-14	-5	·	0.8	-3.4
COC(=O)c1cc(Cl)c(N)cc1OC	3.2	0.8	0	-12	-1	31%	·	-5.7
O=C(Nc1ccccc1Cl)c1ccccc1Cl	1.2	-0.6	-27	9	-3	18%	3.4	3.0
